# GIV Gai3 FP = inhibitors of GIV peptide binding to Galpha-i3, primary screen, biochemical, fluorescence polarization, FITC-GIV GBA peptide, rat Galphai3; 90 min; active compounds read low; scaled: aluminum fluoride 0%, vehicle 100%; AID 1224905, 2016; Guanine nucleotide-binding protein G(i) subunit alpha-3 (Rattus norvegicus), P08753; percent of control (FP), % (no concentration beside the values); hit rate 0.42% among 210,000;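 active = replicate mean at 85% of control or lower, very high polarization wells dropped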;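 also: wells of about 15 µL received 100 nL stock; the first replicate is given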
# Target sequence (P08753 whole entry, looked up): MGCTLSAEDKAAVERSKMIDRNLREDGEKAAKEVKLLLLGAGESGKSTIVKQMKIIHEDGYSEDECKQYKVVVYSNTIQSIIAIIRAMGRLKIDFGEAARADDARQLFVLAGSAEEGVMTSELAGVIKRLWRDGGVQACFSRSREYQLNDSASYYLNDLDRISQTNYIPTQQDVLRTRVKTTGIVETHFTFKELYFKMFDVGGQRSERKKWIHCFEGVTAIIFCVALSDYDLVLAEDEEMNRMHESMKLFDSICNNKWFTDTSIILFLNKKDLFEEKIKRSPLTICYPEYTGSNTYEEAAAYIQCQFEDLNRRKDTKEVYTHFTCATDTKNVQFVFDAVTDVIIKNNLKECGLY
# HCMV UL50-53 inh = inhibitors of HCMV UL50-UL53 interaction, biochemical, HTRF; AID 1918969, 2023; normalized percent inhibition; HCMV UL50-UL53 nuclear egress complex (human cytomegalovirus); hit rate 0.15% among 190,000; inhibition, % (concentration not given with the values);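 active = both replicates at 50% or more, plus weaker picks with an unusually low signal ratio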;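 also: stock transfer was 100 nL into about 20 µL; 0% = negative control wells and 100% = wells with untagged competitor protein; inactives centre near -12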
# Sa growth inh = S. aureus growth inhibition at 42 and 30 °C, primary screen, LtaS inhibitor project, RN4220, two temperatures; relative growth, % (no concentration beside the values); AID 720641, 2013; OD600, 20 h, 42 °C; active compounds read low; hit rate 0.53% among 170,000;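 active = growth at 42 °C up to 50% and 20 or more points under that at 30 °C, or under 10% at both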;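 also: 300 nL library stock went into each well; scaled to the means of positive and negative controls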
# Sa growth inh second temp = also measured in Sa growth inh; calls as there; relative growth, %; measured here: growth at 30 °C;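 optical density after 20 h as mean of two plates; 100% = untreated growth and lower means inhibition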
# The depositor's hits bear a star; . = no result given; & = joins results of further samples.
compound,GIV Gai3 FP,HCMV UL50-53 inh,Sa growth inh,Sa growth inh second temp
COc1ccc(C(=O)NC(=O)CSc2nc3cc(S(=O)(=O)N4CCCCC4)ccc3o2)cc1,.,-22,29,6
O=C1CCCC2=C1C(c1ccc(Cl)cc1)c1c([nH]c(=O)[nH]c1=O)N2 (configuration not stated),105,-2,100,87
COc1ccccc1Cn1c(=S)[nH]c2cc(C(=O)NCC(OC)OC)ccc2c1=O,103,.,124,89
CCOC(=O)c1noc2ncn(CC(=O)c3ccc(OC)c(OC)c3)c(=O)c12,102,-18,.,.
NS(=O)(=O)c1ccc(CCNC(=O)Cc2csc(NC(=O)NC3CCCC3)n2)cc1,103,-5,.,.
N#C/C(=C\C=N\Nc1ccccc1)c1nn(-c2ccccc2)c(-n2cccc2)c1C#N,126,-51,94,73
CC(=O)N(CC1CCCO1)C1(C(=O)NC2CCCC2)CCCCC1 (configuration not stated),96,1,90,92
Cn1c2nc3ccccc3nc2c2c(=O)n(Cc3ccccc3)cnc21,100,-29,104,96
Cc1cc(C)n2nc(SC/C(N)=N/O)nc2n1,107,-1,94,90
O=C(CSc1n[nH]c(-c2ccccc2F)n1)NN1C(=O)NC2(CCCCC2)C1=O,.,-26,90,87
CC(=O)N1CCCc2cc(S(=O)(=O)N3CCCC(C(=O)NCc4ccc(Cl)cc4)C3)ccc21 (configuration not stated),96,.,109,85
CCOc1ccc(NC(=O)C2CC(=O)NC(=Nc3ccc(Cl)c(Cl)c3)S2)cc1 (configuration not stated),106,-24,102,97
COC(CNC(=O)c1c[nH]c2ccc(S(=O)(=O)N(C)c3ccc(C(C)C)cc3)cc2c1=O)OC,104,.,69,72
O=C(CCCc1c[nH]c2ccccc12)NCCN1CCOCC1,105,-12,100,99
CCCCC(=O)N(c1ccc(C)c(C)c1)C1C=CS(=O)(=O)C1 (configuration not stated),101,-19,105,95
CC(CC1OCC(CN2CCCCC2)O1)CC(C)(C)C (configuration not stated),.,-5,98,85
CCCn1c(C)cc(/C=C(\C#N)C(=O)Nc2ccccc2)c1C,.,-18,75,92
Cc1ccc(SCCN2C(=O)NC3(CCCC3)C2=O)cc1,.,-20,99,96
O=C(NCC(c1ccco1)S(=O)(=O)c1cccs1)c1ccc(F)cc1 (configuration not stated),102,.,107,85
N#CC(C#N)C(CC(=O)c1ccccc1)c1ccccc1 (configuration not stated),102,-6,90,71
COc1ccccc1Nc1nc2c(S(=O)(=O)c3ccc(C(C)C)cc3)nnn2c2ccsc12,109,.,95,89
CC(C)Nc1nc(NC(C)C)nc(Oc2ccc(/C=N/O)cc2)n1,103,4,113,103
Cc1ccc(-c2cc(C(F)F)nc(NC3CCCCC3)n2)cc1,94,14,90,89
Cc1ccc(C(=O)c2cn(Cc3cccc(Cl)c3)c3nc(C)ccc3c2=O)cc1,103,-5,98,88
Cc1cc(C)cc(NC2=NS(=O)(=O)c3ccccc32)c1,96,8,88,104
O=C(NC1CCCCC1)c1ccc(Cl)c(-n2nnc3cccnc32)c1,109,-32,.,.
NC(=O)c1cc(-c2ccc(Cl)cc2)no1,103,-49,102,88
COC(=O)c1cc2oc3ccccc3c2n1CC(=O)NCCC1=CCCCC1,104,.,99,88
CCc1cccc(NC(=O)CN2C(=O)COc3ccc(S(=O)(=O)Nc4ccccc4)cc32)c1,109,.,96,69
CN1C(=O)/C(=C/C=C2\SCCN2C)SC1=S,.,-32,75,99

# Compound profiles, from the list above.
# `O=C(CCCc1c[nH]c2ccccc12)NCCN1CCOCC1` across the screens: GIV Gai3 FP = 105; HCMV UL50-53 inh = -12; Sa growth inh = 100; Sa growth inh second temp = 99
# `O=C(NC1CCCCC1)c1ccc(Cl)c(-n2nnc3cccnc32)c1` across the screens: GIV Gai3 FP = 109; HCMV UL50-53 inh = -32; Sa growth inh = .; Sa growth inh second temp = .

# Going on with the list.
compound,GIV Gai3 FP,HCMV UL50-53 inh,Sa growth inh,Sa growth inh second temp
O=C(NCc1ccccc1)c1cccc(C(=O)NCc2ccccc2)n1,103,-16,.,.
Cc1n[nH]c(C)c1NC(=O)CSc1nnc(-c2ccoc2C)n1-c1ccccc1,.,4,86,95
Cc1cccc(C(=O)NC2CCN(CC(=O)N3CCOCC3)CC2)c1,99,-20,87,92
O=S(=O)(c1ccc(-c2cnc(C3CC3)o2)cc1)N1CCN(c2cccc(Cl)c2)CC1,101,.,86,86
COc1ccc(N(CC(C)C)S(=O)(=O)c2nnc(NC(=O)c3ccco3)s2)cc1,110,-5,101,50
C=C(C)c1nc2cc(OC)c(OC)cc2c(=O)o1,107,2,100,91
Cc1ccc(S(=O)(=O)Nc2cc3c(cc2C)n(C)c(=O)c(=O)n3C)cc1,102,.,91,84
O=C1C(c2nc3ccccc3[nH]2)=C(O)c2ccccc21,95,-23,90,99
COc1ccc(OC)c(NC(=O)c2cccn2-c2nnc(N3CCCCC3)s2)c1,92,.,91,82
Cc1ccc(-c2n[nH]c(CCNC(=O)Cc3cccc(C)c3)n2)cc1,98,-24,.,.
COc1ccccc1NC(=O)CSc1oc(-c2ccco2)nc1S(=O)(=O)c1ccc(C)cc1,102,-15,106,87
O=C1CCN(C(=O)COc2ccccc2Cl)c2ccccc2N1,96,-18,.,.
CCN(CC)CCNC(=O)c1cc(C)nc2c1c(=O)n(C)c(=O)n2C,109,9,.,.
C=C(C)COc1cc(O)c2c(=O)cc(-c3ccccc3)oc2c1,102,-23,94,79
Cc1ccc(NC(=O)n2ccnc2)cc1NC(=O)n1ccnc1,.,-4,103,81
CCCCCn1c(=O)[nH]c2cc(C(=O)N3CCN(c4cc(C)ccc4C)CC3)ccc2c1=O,103,-16,101,82
COc1ccc(N2C(=O)CCS2(=O)=O)cc1S(=O)(=O)NC1CCCCC1,98,8,.,.
O=C(Cn1ccc2cc(S(=O)(=O)N3CCCC3)ccc21)NCc1cccc(Cl)c1,98,6,.,.
COc1ccc(CNC(=O)COC(=O)Cc2n[nH]c(=O)c3ccccc23)cc1,.,-8,102,94
CCOC(=O)c1nc(-c2ccc(F)cc2)no1,107,-41,107,97
COc1cccc(CNC(=O)c2ccc(NC(=O)N3CCCCc4ccccc43)cc2)c1,100,.,94,84
CC1CCN(C(c2ccncc2)c2ccc3cccnc3c2O)CC1 (configuration not stated),.,-74,31,2
COc1ccc(CSc2nc3ccncc3n2Cc2ccccc2)cc1,100,-22,.,.
Cc1sc2nc(CSCC(=O)OC(C)(C)C)[nH]c(=O)c2c1C,.,19,89,99
Cc1ccc2c(c1)-c1c(ssc1=S)C(C)(C)N2C(=O)c1ccncc1,103,.,91,118
CCc1cccc(C)c1NC(=O)c1cc(S(=O)(=O)N2CCC3(CC2)OCCO3)ccc1F,106,.,118,98
O=C(OCCOc1ccccc1)c1ccccc1C(=O)N1CCN(c2ccc(F)cc2)CC1,.,1,91,90
CCC(C(=O)N(C)Cc1ccccc1)n1nc(C)c2sc3ccccc3c2c1=O (configuration not stated),103,-11,85,89
CN(C)C(=O)Cn1c(=O)oc2ccccc21,.,-24,91,90
CC1(C)N=C2C(=N)C=CC=C2N1O,91,-149,94,97

# 3 structures from above, ordered by number of heavy atoms, descending:
compound,GIV Gai3 FP,HCMV UL50-53 inh,Sa growth inh,Sa growth inh second temp
O=C(OCCOc1ccccc1)c1ccccc1C(=O)N1CCN(c2ccc(F)cc2)CC1,.,1,91,90
Cc1n[nH]c(C)c1NC(=O)CSc1nnc(-c2ccoc2C)n1-c1ccccc1,.,4,86,95
Cc1cccc(C(=O)NC2CCN(CC(=O)N3CCOCC3)CC2)c1,99,-20,87,92

# (listing goes on)
compound,GIV Gai3 FP,HCMV UL50-53 inh,Sa growth inh,Sa growth inh second temp
Cc1ccc2nc(-c3cc(NC(=O)COc4ccc(C)c(C)c4)ccc3Cl)oc2c1,102,-11,102,93
Cc1ccc(NC(=O)Cn2nnc(C(=O)NCCc3ccccc3)c2N)cc1Cl,100,.,88,86
Cc1cc(C)n2cc(CSC3=NCCS3)nc2n1,.,-4,98,94
CCC(=O)N1CCN(C(=O)CC)C1c1ccccc1,104,-3,99,91
COc1ccc(N(Cc2cccs2)C(=O)Nc2ccccc2)cc1,104,-15,121,90
Cc1ccc(C(=O)Nc2ccc(C(=O)OCc3cc(=O)n4c5c(sc4n3)CCCC5)cc2)cc1,103,.,100,79
Clc1ccccc1C1N(Cc2ccccc2)CCN1Cc1ccccc1,97,.,94,87
COc1ccc(S(=O)(=O)Nc2cc3c(cc2N2CCCCC2)n(C)c(=O)c(=O)n3C)cc1Cl,100,-34,.,.
Cc1c(CC2C(=O)Nc3ccccc32)oc2ccccc12 (configuration not stated),103,-9,.,.
COC(=O)c1c(NC(=O)CCCOc2cccc(C)c2)sc2c1C(C(=O)OC)CC2 (configuration not stated),101,-18,98,86
O=C(CCS(=O)(=O)c1cc2c3c(c1)CCN3C(=O)CC2)NCc1ccc(F)cc1,103,.,89,88
COc1ccc(C(=O)Nc2ccc3nc(N4CCC(C)CC4)cc(C)c3c2)cc1,100&104,1&-14,112,101
N#Cc1nc(-c2ccccc2)oc1NCCCn1ccnc1,96,-9,83,92
O/N=C1\CCc2ccccc2\C1=N/O,.,-41,111,44
Cc1ccc(OCC(=O)Nc2cc(-c3cccc(C)c3)nn2-c2ccccc2)cc1,101,.,74,86
COc1ccc(-c2nnc(SCC(=O)NCc3ccccc3)nc2-c2ccc(OC)c(OC)c2)cc1OC,99,.,88,86
NC(=O)C1CCN(C(=O)c2cnn3c(C(F)(F)F)cc(-c4ccccc4)nc23)CC1,104,-38,.,.
O=C(CCc1c[nH]c2ccccc12)N(Cc1cccnc1)c1ccc2c(c1)OCO2,.,-46,81,83
C1=CC2CC1CC2CN1CCN(Cc2cccnc2)CC1 (configuration not stated),100,-6,92,82
CC(C)(C)c1n[nH]c(C(C)(C)C)c1Cc1c(F)cccc1Cl,101,-31,90,95
CCOC(=O)c1cc(-c2ccccc2)n(-c2cccc(C(=O)Nc3cc(OC)cc(OC)c3)c2)c1C,98,.,105,92
O=C(CC(CC(=O)c1cccs1)c1ccccc1)c1ccccc1 (configuration not stated),109,4,107,107
Cc1c(C#N)c2nc3ccccc3n2c(=O)/c1=C/NN1C(=O)CNC1=S,-31*,-25,113,82
NC1=NC(=O)C(CC(=O)Nc2cccc(C(=O)Nc3ccc4c(c3)OCCO4)c2)S1 (configuration not stated),.,-1,97,93
COc1ccc(NC(=O)C2CCOC(C)(C)C2)cc1 (configuration not stated),96,-1,120,88
Cc1cc(=O)[nH]c(SC(C)C(=O)Nc2ccccc2)n1 (configuration not stated),100,0,101,89
CC(C)(C)C1=NNC2=C(c3nc(-c4ccc(Cl)cc4)cs3)C(N)=NC2C1=O (configuration not stated),.,-8,54,61
CC1N=C2c3ccccc3N=C(SCC(=O)NCCc3ccc(Cl)cc3)N2C1=O (configuration not stated),99,.,97,83
Cn1ccsc1=NC(=O)CCN1C(=O)c2ccccc2C1=O,.,-6,102,102
Cc1ccc(NC(=O)CC23CC4CC(CC(C4)C2)C3)cc1,95,.,97,88

# Some values from the list:
# Under HCMV UL50-53 inh, N#Cc1nc(-c2ccccc2)oc1NCCCn1ccnc1 shows -9
# Under Sa growth inh second temp, O/N=C1\CCc2ccccc2\C1=N/O shows 44

# Next part
compound,GIV Gai3 FP,HCMV UL50-53 inh,Sa growth inh,Sa growth inh second temp
COc1ccccc1NC(=O)CCCc1ccccc1,97,2,91,80
Cc1ccc(N=Cc2cc3ccccc3nc2Cl)cc1Cl,.,-25,81,101
CCCCN(C)c1ncc(C(=O)O)cc1NS(=O)(=O)c1cc(F)ccc1F,112,-46,.,.
CCOC(=O)c1cccc(C(=O)NC2=CC(=O)CC(C)(C)C2)c1,.,-11,79,78
COc1ccc(-c2noc(=O)n2CC(=O)N2CCC(C)CC2)cc1,105,.,100,88
O=[S@@]1c2ccccc2Nc2cc(C(F)(F)F)ccc21,98,-6,112,104
Cc1ccccc1C1C2=C(CC(c3ccccc3)CC2=O)Nc2onc(C)c21 (configuration not stated),106,-13,.,.
O=C1NC(=O)C(C2SC(=O)NC2=O)S1 (configuration not stated),.,-2,91,88
O=C(CSc1nc2ccccc2s1)OCC(=O)N1c2ccccc2Sc2ccccc21,107,1,.,.
COc1ccc(C2=NN(c3nc(C)cs3)C(c3ccc(F)cc3)C2)cc1 (configuration not stated),98,-30,.,.
O=C(NCSC1=NCCS1)c1ccccc1,96,.,120,87
CCCN1CCN(c2nnc(-n3cccc3CN3CCN(C4CCCCC4)CC3)s2)CC1,98,-7,.,.
CCN(Cc1ccc2c(c1)OCO2)C(=O)c1oc2c(F)cccc2c1C,.,-10,79,74
COc1ccccc1NC(=O)CSc1nc2sc3c(c2c(=O)n1-c1ccccc1)CC(C)(C)OC3,102,-4,89,76
Cc1ccc(NC(=O)c2oc3ccc(S(=O)(=O)N(C)C4CCCCC4)cc3c2C)cc1Cl,100,.,99,90
Cc1ccc(S(=O)(=O)N2CCCC(C(=O)N/N=C3\CCS(=O)(=O)c4ccc(F)cc43)C2)cc1 (configuration not stated),.,-25,102,94
Cc1ccc(S(=O)(=O)N2CCCN(c3nc4ccccc4n4cccc34)CC2)cc1,98,-21,.,.

# Screens (PubChem)
